# TAR Tat displ: HIV-1 TAR-Tat binding disruption. HIV-1 TAR RNA, Tat peptide displacement FRET; active compounds read high. z-score (test concentration not listed). 100,000 compounds, 0.6% hits. AID 1259389;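 note: score is relative to mean and SD of negative controls; some compounds called inactive have numbers as strong as hits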
# CDC25B-CDK2 inh: human CDC25B-CDK2/CyclinA binding inhibition; P30305+P24941; HTRF CDC25B-CDK2/CyclinA binding, anti-His/anti-Flag; active compounds read high; z-score (no concentration beside the values); 94,000 compounds, 0.72% hits;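 note: score is relative to mean and SD of negative controls; strong numbers were not always called active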
# * marks the source's active call; other numbers are inactive results; . = not tested or not shown.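 Rule for the calls: active = z-score from 3 up in half or more of its runs; inactive = the rest.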
SMILES,TAR Tat displ,CDC25B-CDK2 inh
CCN1CCN(Cc2c(O)ccc3c(=O)c(-c4ccc(Cl)cc4)c(C(F)(F)F)oc23)CC1,0.26,0.53
CN(CCNC(=O)C1CCN(c2nc3cccnc3s2)CC1)C1CCCCC1,0.79,.
COc1ccc(C2C(C(=O)c3ccco3)=C(O)C(=O)N2Cc2cccnc2)cc1 (centres undefined),0.35,0.06
CCOC(=O)N1CCN(C(=O)c2cc3c(s2)-c2ccccc2SC3)CC1,-0.96,-0.14
COCCNC(=O)CSc1nc(N)c2c3c(sc2n1)CCCC3,-3.2,-0.71
Cc1ccc(C)c(NS(=O)(=O)c2ccc(N)c(S(N)(=O)=O)c2)c1,-0.09,-0.59
CN(C)CCCNc1nc(N)c([N+](=O)[O-])c(Nc2ccc(F)cc2)n1,1.7,.
Cc1nn(-c2ccccc2)c2c1C(c1cccc(O)c1)C(C#N)=C(N)O2 (centres undefined),.,-4.2
COC(=O)C1=C(N)OC2=C(C(=O)CC(C)(C)C2)C1c1ccc(OC)cc1 (centres undefined),.,-0.48
CCn1cc(C(=O)OCc2ccc(C)cc2)c(=O)c2ccc(C)nc21,1.1,.
O=C(c1cccc(F)c1)N1N=C2CCCCCC2C1(O)C(F)(F)F (centres undefined),.,-0.42
Clc1cccc2nc3n(c12)CCN(CCc1ccccc1)C3,0.53,-1.1
CC(C)COC(=O)Cn1nnc2sc(-c3ccccc3)cc2c1=O,0.41,-1.2
N#CC1=C(N)Oc2oc3ccccc3c(=O)c2C1c1ccc(F)cc1 (centres undefined),.,0.15
Cc1ccc(CNS(=O)(=O)c2c(C(=O)N3CCCC3)c(C)n(C)c2C)o1,0.59,.
Cc1ccc(-n2c(=O)c3sccc3n(Cc3cc(=O)n4ccccc4n3)c2=O)cc1F,.,-1
O=C(COc1nsnc1N1CCOCC1)c1ccccc1,-0.63,-0.37
COC(=O)/C(C#N)=C\c1ccccc1N1CCN(Cc2ccccc2)CC1,.,-0.48
COCCSc1ncc(CO)n1Cc1ccc(F)cc1,0.78,.
CSc1nc2ccc(NC(=O)C3CCCCC3)cc2s1,-0.71,-2.1
CSc1ccc(C2NC(=O)CCC2[N+](=O)[O-])cc1 (centres undefined),2.1,-1
O=C(Nc1ccc2oc(-c3cccnc3)nc2c1)c1cccnc1,.,0.24
O=C(Nc1c(C(c2cccnc2)N2CCOCC2)oc2ccccc12)c1ccccc1 (centres undefined),-0.35,-2.3
Cc1ccc(C2CC(C(F)(F)F)n3ncc(C(=O)NCc4c(C)nn(C)c4C)c3N2)cc1 (centres undefined),0.65,-1.4
CCc1cc2c3c([nH]c2cc1S(=O)(=O)NC1CC1)CCCC3=O,-0.06,.
C=C(C)Cn1c(=S)[nH]c2c(c1=O)C1(CCCC1)Cc1ccccc1-2,.,-2.2
COc1ccc(OC)c(NS(=O)(=O)c2cc3c4c(c2)CCC(=O)N4CCC3)c1,-0.85,.
O=C(CC12CC3CC(CC(C3)C1)C2)N1CCOCC1,.,-0.35
Fc1ccc(OCc2nn3cnnc3s2)cc1,-0.37,-2.1
CCNC(=O)C(=O)NCC(c1cccs1)S(=O)(=O)c1ccc(F)cc1 (centres undefined),1.4,.
CCN(CC)CCN(C(=O)c1ccco1)c1nc2c(F)cc(F)cc2s1,0.13,.
CC1CCCCC1NC(=O)c1cnn2c3c(cnc12)CCCCC3 (centres undefined),1.9,.
CCOC(=O)/C=C/C(=O)O,.,-0.92
Cc1cc(C)cc(NS(C)(=O)=O)c1,0.11,-1.8
Cc1c(C2=CCN(S(=O)(=O)c3cnc[nH]3)CC2)c2ccccc2n1Cc1ccc(F)cc1,-1.5,.
CNC(=O)c1cnn2c(C(F)(F)F)cc(C(F)(F)F)nc12,.,-1.4
CCOC(=O)c1sc(-c2sccc2CSc2ccc(Cl)cc2)nc1C,.,-0.9
CCCCCCCCCCCC(=O)NN,.,0.77
CCOc1ccc2nc(NC(=O)Nc3cn(CC(C)C)c(=O)c4ccccc34)sc2c1,1.1,.
CC(=O)c1cccc(NC(=O)CCC(=O)OCC(=O)c2ccc(Cl)c([N+](=O)[O-])c2)c1,.,-2
Cc1c(C2=CCN(S(=O)(=O)c3cn(C)cn3)CC2)c2ccccc2n1Cc1cccc(F)c1,-1.3,.
CSc1nc(NCCOC(=O)c2ccco2)c(C#N)c(-c2ccc(C(C)(C)C)cc2)n1,2.7,-1.9
Cc1[nH]c2ccccc2c1C(=O)C(=O)NCCn1c(C)cc2ccccc21,-0.39,-1.4
Cc1ccc(NC(=O)CSc2nc(-c3ccc(Cl)cc3)nc3cc(=O)[nH]n23)cc1C,25,.
CCCC[C@@]1(C2CCCC2)Cc2cc(OCC(=O)O)c(Cl)c(Cl)c2C1=O,.,-0.98

# Compounds from the list above that have an aryl methoxy group:
SMILES,TAR Tat displ,CDC25B-CDK2 inh
COc1ccc(C2C(C(=O)c3ccco3)=C(O)C(=O)N2Cc2cccnc2)cc1 (centres undefined),0.35,0.06
COC(=O)C1=C(N)OC2=C(C(=O)CC(C)(C)C2)C1c1ccc(OC)cc1 (centres undefined),.,-0.48
COc1ccc(OC)c(NS(=O)(=O)c2cc3c4c(c2)CCC(=O)N4CCC3)c1,-0.85,.

# (cont.)
SMILES,TAR Tat displ,CDC25B-CDK2 inh
CC1CCC(NC(=O)C2CCN(c3ccc(-c4cccs4)nn3)CC2)CC1 (centres undefined),0.79,.
Cc1ccc(SCC2=NNC(=O)C2)cc1,-0.55,-0.88
COC(=O)c1cc(-c2ccc(C)cc2)c2c(=O)[nH]c(=O)n(C)c2n1,1.1,-7
CSc1nnc(NC(=O)Cc2coc3cc(C)cc(C)c23)s1,1.1,-6.4
CCOC(=O)c1cc(C#N)c(Nc2ccccc2OC)nc1C(F)(F)F,.,-1.5
Cc1nn(C(C)C(=O)NC2CCCC2)c(=O)c2cc3sccc3n12 (centres undefined),-0.29,-0.99
O=C(O)c1c2c(nc3ccc(S(=O)(=O)N4CCC(C(=O)O)CC4)cc13)CCCCC2,1.5,-1.3
CCCc1nc(SCc2cc(=O)c3ccc(C)c(C)c3[nH]2)n[nH]1,-0.6,.
Cn1c2ccccc2n2c(CCC(=O)O)c(-c3ccccc3)nc12,0.14,-0.79
CCOc1ccc2nc(SCC(=O)Nc3ncccn3)sc2c1,-0.15,-2.1
CC1(C)Cc2c(sc3c2c(=O)n(Cc2ccccc2)c(=O)n3CC(=O)c2ccccc2)CO1,-1.2,-0.94
O=C1Nc2ccccc2C(O)(C(=O)NCCCN2CCCC2)N1c1c(F)cccc1F (centres undefined),.,-0.59
CC(C)(C)c1ccc(C(=O)O/N=C(\N)c2ccc([N+](=O)[O-])s2)cc1,.,0.99
O=c1oc2ccccc2c(O)c1CN1CCCC1,.,-1.9
O=C1/C(=C/c2cccs2)COc2ccccc21,.,-0.88
Cn1c(C(=O)N2CCC(C(=O)N3CCN(c4ccccc4)CC3)CC2)cc2sccc21,-0.58,-0.7
Cc1ccc(Nc2nc(N)nc(CSc3nccn3C)n2)c(C)c1,1.5,-0.6
CCc1nc2n(n1)C1(CCCCC1)[C@@H]1CCCC[C@@H]1N2,1.5,-0.26
Cc1cc2[nH]c(=O)[nH]c2cc1NC(=O)NCC(C)C,-0.14,.
CCOc1ccc(NC(=O)N2c3ccccc3NC3=C(C(=O)CC(C)(C)C3)C2c2ccco2)cc1 (centres undefined),2.1,.
CCc1nn(Cc2ccc(F)cc2)c(=O)c2cc3cc(C)ccc3n12,1.5,0.47
Cc1cc(-c2ccc(S(=O)(=O)N3CCN(c4ccccn4)CC3)s2)n[nH]1,-0.75,.
CC1(C)CC(=O)C2=C(C1)Nc1ccccc1N(C(=O)c1ccccc1)C2c1cccc(F)c1 (centres undefined),0.2,7.6
O=S(=O)(c1ccc(F)cc1)N(Cc1nc(-c2ccccc2)no1)C1CCCCC1,1.6,-0.3
Clc1ccc(-c2noc3ncnc(N4CCN(c5ccccc5)CC4)c23)cc1,1.3,-0.4
Clc1ccc(-n2ncnc2-c2ccccc2)cc1,-0.06,-2.5
O=c1c(S(=O)(=O)c2ccc(F)cc2)cn(Cc2ccccc2)c2ccc(F)cc12,1.5,-1
O=C(CN1c2ccccc2NC2=C(C(=O)CCC2)C1c1cccs1)Nc1cc(F)ccc1F (centres undefined),0.7,.
O=C(CSc1nnc2ccccn12)Nc1c(F)cccc1F,.,0.07
CCN(CC)c1ccc2nnc(CCC(=O)Nc3ccc4c(c3)OCO4)n2n1,-0.23,.
Cc1csc(NC(=O)CSc2ccc(-c3ccc4c(c3)OCO4)nn2)n1,0.96,.
COc1cc(O)c(C(=O)O)c(O)c1,1.6,.
CCC(=O)N1c2ccc(S(=O)(=O)CCC(=O)Nc3cc(C)on3)cc2CC1C (centres undefined),-0.09,.
COc1ccc(-c2cc(C(F)(F)F)nc(SCC(=O)N3CCCC3)n2)cc1,0.08,-1.3
c1ccc(-c2csc(NCc3ccco3)n2)nc1,-5.1,2.6
CC(=O)Nc1ccc(S(=O)(=O)Nc2cc(C(F)(F)F)cc(C(F)(F)F)c2)cc1,.,-2.8
Cc1ccc(N2C(=O)c3ccncc3C2=O)cc1C,0.71,-0.57
CC1=C(O)C(=O)/C(=C/N(C)C)C1,.,-0.84
CC12CCC(C(=O)Nc3ccccc3F)(CC1=O)C2(C)C (centres undefined),0.47,-0.33
Cc1ccc(NC(=O)CCc2c(C)nc3ncnn3c2C)nc1,0.13,-0.1
CN(C(=O)C1CCN(c2ncnc3c2nc2n3CCCCC2)CC1)c1ccccc1Cl,1.8,.
Cn1c(SCc2ccc(C(F)(F)F)cc2)nnc1C(F)(F)F,.,-0.67
O=C(Cn1c(=O)oc2cc(S(=O)(=O)N3CCOCC3)ccc21)N1CCc2ccccc2C1,.,-1.3
CSc1nc(-c2ccccc2)c(C#N)c(N2CCCC2)n1,-0.04,-1.4
O=C(OCc1cc(=O)n2c3c(sc2n1)CCCC3)c1ccco1,0.22,.
N#Cc1c2c(c(N3CCOCC3)n3c1nc1ccccc13)CCC2,-0.48,-2.3
Cc1nc(N2CCCC(C(=O)N(C)Cc3ccco3)C2)c2c(C)noc2n1 (centres undefined),1.1,.
COc1cccc(-n2c(=O)[nH]c3c(oc4ccccc43)c2=O)c1,0.5,-0.65
C=CCSc1nnc(NC(=O)c2cc(=O)c3ccc(C)c(C)c3o2)s1,2.6,-0.97
CC(C)CC(C(=O)N1CCCC1)N1Cc2ccccc2C1=O (centres undefined),1.5,.
Brc1ccc(Cn2c(CN3CCOCC3)nc3ccccc32)cc1,0.95,-0.73
COCCN1C(=O)c2oc3cc(C)cc(C)c3c(=O)c2C1c1ccc(OC)c(OC)c1 (centres undefined),0.27,-1.6
O=C(NC1(Cc2ccc(F)cc2)N=C2C=CC=CN2C1=O)c1ccccc1 (centres undefined),.,1.9
Cc1c(Cl)cccc1NS(=O)(=O)c1ccc(-c2cnc(C3CC3)o2)cc1,2.5,.
Cc1ccc(C(=O)NC(C)Cc2ccco2)cc1NC(=O)C1=CSCCO1 (centres undefined),2.7,.
COc1ccc(C2=Nn3c(C)nnc3SC2)cc1Br,0.49,-1.3
COc1ccc2c(c1)N(C(=O)Nc1ccc(Cl)cc1)C(C)(C)C=C2C,-3.3,-1.4
CCOc1ccc(Oc2nc(NC)nc(N3CCOCC3)n2)nn1,0.18,-0.86
CCCN1CCN(c2ncc3c(n2)CCN(Cc2ccccc2Cl)C3)CC1,0.58,.
O=C(NC1CCCC1)c1n[nH]c(=O)c2ccccc12,1.2,-1.7

# (continued)
SMILES,TAR Tat displ,CDC25B-CDK2 inh
Cc1ccc2c(c1)C(O)(CC(=O)c1ccccc1F)C(=O)N2 (centres undefined),1.3,.
O=C(Cn1cnc(S(=O)(=O)N2CCCC2)c1)Nc1ccc(F)c(F)c1,-0.21,.
Cc1nn(CC(=O)O)cc1Br,2.6,-0.5
COC(=N)c1nccnc1SCc1ccc(F)cc1,.,1.4
O=c1cc(O)c2sc3nc(C45CC6CC(CC(C6)C4)C5)cc(C(F)(F)F)c3c2[nH]1,.,0.33
CCOC(=O)C(C)Oc1ccc2c(c1)oc(=O)c1ccccc12 (centres undefined),.,-1.5
COCCCNS(=O)(=O)c1ccc2c(c1)CCCC(=O)N2,1.3,.
N#Cc1c(-c2cccnc2)c2c([nH]c1=O)-c1ccccc1SC2,.,2.8
Cc1cc(C)c(NC2c3ncccc3C(=O)N2Cc2ccco2)c(C)c1 (centres undefined),0.82,.
CCc1cccc(NS(=O)(=O)c2cc(-c3cnc(C4CC4)o3)ccc2C)c1,2,.
CCOC(=O)c1[nH]c(C)c(C(=O)O)c1C,2.1,.
CCCc1n[nH]c(=O)c2c1nnn2Cc1ccccc1,1.9,-1.5
N[C@H](C(=O)O)[C@H](Cc1ccccc1)C(=O)O,.,-2.2
Cc1cc(OCc2noc(-c3c(F)cccc3F)n2)ccc1Cl,0.65,-0.25
CCc1ccc(C2CC(=O)NC(N)=N2)cc1 (centres undefined),0.89,.
Cc1nn(CC(=O)NC2CCCC2)c(=O)c2c1sc1ccccc12,2.5,-2.3
COc1ccc(NC(=O)c2nc(SC)ncc2Cl)c(OC)c1,0.11,-0.31

# Structures listed so far that have a COOH group (8):
SMILES,TAR Tat displ,CDC25B-CDK2 inh
CCOC(=O)/C=C/C(=O)O,.,-0.92
CCCC[C@@]1(C2CCCC2)Cc2cc(OCC(=O)O)c(Cl)c(Cl)c2C1=O,.,-0.98
O=C(O)c1c2c(nc3ccc(S(=O)(=O)N4CCC(C(=O)O)CC4)cc13)CCCCC2,1.5,-1.3
Cn1c2ccccc2n2c(CCC(=O)O)c(-c3ccccc3)nc12,0.14,-0.79
COc1cc(O)c(C(=O)O)c(O)c1,1.6,.
Cc1nn(CC(=O)O)cc1Br,2.6,-0.5
CCOC(=O)c1[nH]c(C)c(C(=O)O)c1C,2.1,.
N[C@H](C(=O)O)[C@H](Cc1ccccc1)C(=O)O,.,-2.2

# High-throughput results from PubChem BioAssay.
